High-throughput results: PubChem, National Center for Advancing Translational Sciences (NCATS)
D2 ag: agonists of human D2 dopamine receptor (beta-arrestin); P14416; DiscoveRx PathHunter D2 beta-arrestin, luminescence, 90 min; 100% = 57 uM dopamine signal; activation, % (concentration not given with the values); hit rate 0.084% among 360,000; AID 624465; in the data active = activation above about 40%; inconclusive = about 15% to 40%; inactive = below about 15%; further: compound concentration not given in the record; the text of the record calls up to 30% inactive
Target sequence (P14416 whole entry, looked up): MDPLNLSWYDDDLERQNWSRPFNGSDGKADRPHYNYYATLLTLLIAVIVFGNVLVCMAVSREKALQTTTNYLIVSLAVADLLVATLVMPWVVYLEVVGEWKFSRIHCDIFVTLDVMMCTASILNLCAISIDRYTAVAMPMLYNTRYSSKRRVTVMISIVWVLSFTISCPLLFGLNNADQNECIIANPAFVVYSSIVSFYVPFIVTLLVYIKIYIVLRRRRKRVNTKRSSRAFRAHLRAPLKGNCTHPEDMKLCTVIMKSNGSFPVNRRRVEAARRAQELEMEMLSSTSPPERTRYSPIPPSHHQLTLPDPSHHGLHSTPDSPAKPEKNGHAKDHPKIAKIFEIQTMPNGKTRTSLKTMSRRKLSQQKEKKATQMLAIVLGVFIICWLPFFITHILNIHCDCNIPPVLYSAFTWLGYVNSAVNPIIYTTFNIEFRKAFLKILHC
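DiscoveRx PathHunter D2 beta-arrestin cells (2,100/well) attached overnight, then compound-stimulated 90 min at 37 C in HBSS/10 mM HEPES/0.1% Tween-20 buffer; beta-galactosidase complementation read by luminescence after 1 h at ambient temperature. Dopamine 57 uM final (EC100) as control.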
Menin MLL FP FL: inhibitors of human menin-MLL interaction, wild-type MLL peptide | FP activity change, % at 61.4 µM | AID 1766 | Fluorescence polarization, fluorescein-MLL peptide displacement from menin | 290,000 tested, under 10 active; inconclusive = falling polarisation curve, or a change in total fluorescence; inactive = total fluorescence flat and polarisation flat or rising; no compound was filed as active; the % refers to the polarisation; negative = inhibition;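 further: % of control where 0% means no effect; inhibitors lower the polarisation; unlabelled MLL peptide was the positive control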
PINK1 modulator: changes PINK1 expression; PINK1 immunofluorescence, high-content cytometry, 24 h; Potency, µM (top dose mostly 76.6 µM), inactives show at the highest dose activation (PINK1 increase), actives largely listed as activators; hit rate 0.2% among 410,000; AID 624263; active = well fitted activation curve with a large enough effect; inconclusive = small, poorly fitted or top-dose-only effect; inactive = flat fitted curve, though single readings scatter; cell line not stated here;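 further: potency means the concentration at half of the fitted maximal effect; % of control where 0% means no effect; nearly all actives have a fitted effect of over 65% in size; a mitochondrial uncoupler was the plate control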
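PINK1 protein, normally rapidly degraded, was detected by immunofluorescence after 24 hour compound treatment of a stable cell line. Titration data (5 concentrations) came from laser-scanning cytometry, with CCCP-treated wells as controls.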
gsp antagonist: antagonizes gsp, the McCune-Albright syndrome mutation; gsp-mutant cells, cAMP HTRF, 30 min; control for the full effect not named in the record; Potency, µM (highest dose often 76.9 µM), for inactives: at the highest dose activity change, negative = inhibition, actives largely listed as inhibitors; hit rate 0.4% among 340,000; AID 624288; active = falling curve of any shape with a large fitted effect; inconclusive = falling curve, mostly with a smaller effect; inactive = flat or rising curve; cell line not stated here;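 further: intracellular cAMP measured with PDE inhibitor Ro 20-1724 present during compound exposure; potency means the concentration at half of the fitted maximal effect; on the % scale 0 is the no-effect control and ±100 the full control effect; nearly all actives have a fitted effect of over 65% in size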
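Cells in G418 medium, seeded 16-24 h, 37C; buffer exchange to DPBS + 1 mM CaCl2, 0.5 mM MgCl2, 0.05% BSA; cpds in DMSO + […] (300 uM stock), 30 min 37C; HTRF cAMP detection.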
Sfp inh: Sfp phosphopantetheinyl transferase inhibition; Q9F4F7; Biochemical Sfp PPTase activity, qHTS; Potency, µM, inactives show max response, negative = inhibition, actives largely listed as inhibitors; hit rate 3.5% among 310,000; active means well fitted inhibition curve with a large enough effect; inconclusive means small, poorly fitted or top-dose-only effect, or another doubt; inactive means no such curve, though single readings can be large or run the other way;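 further: the enzyme is Sfp with the accession as filed and its product quenches rhodamine fluorescence; potency means the concentration at half of the fitted maximal effect; 0% = enzyme reaction without inhibitor and -100% = no enzyme wells; top concentration of the series not given in the record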
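Compounds were incubated with enzyme (final 15 nM) for 15 min at room temperature before substrate addition started the reaction. Fluorescence at 525 nm excitation, 598 nm emission was recorded immediately and after 30 minutes.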
gsp agonist: activates gsp, the McCune-Albright syndrome mutation; gsp mutant cells, cAMP HTRF, 30 min; control for the full effect not named in the record; Potency, µM (titrated, usually from 76.9 µM), inactives show top-dose activation (cAMP increase), usual class: activators; hit rate 0.13% among 340,000; active = well fitted activation curve with a large enough effect; inconclusive = small, poorly fitted or top-dose-only effect, or another doubt; inactive = no such curve, though single readings can be large or run the other way; cell line not stated here;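 further: phosphodiesterase inhibitor Ro 20-1724 added with compounds to block cAMP breakdown; potency means the concentration at half of the fitted maximal effect; nearly all actives have a fitted effect of over 60% in size; about a fifth of the inactives were tested at one dose only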
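Cells stably selected in G418 were plated at 2000/well, grown 16-24 hr, then given compounds in DMSO with the PDE inhibitor […] (300 uM solution added) for 30 min at 37C; cAMP was read by HTRF.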
ClpP mod: qHTS Assay for Activators of ClpP; Potency, µM (highest dose often 57.5 µM), without a hit: at the top dose activity change, negative = active; AID 651965, 2013; purified B. subtilis ClpP, FRET peptide cleavage, 20 min; ATP-dependent Clp protease proteolytic subunit (Bacillus subtilis (strain 168)), P80244; hit rate 1.9% among 340,000; active = well fitted falling curve with a large enough effect; inconclusive = small, poorly fitted or top-dose-only effect; inactive = no such curve, though single readings can be large or run the other way; further: potency means the concentration at half of the fitted maximal effect; the source files actives as falling curves though it sought activators and does not explain the sign; nearly all actives have a fitted effect of over 65% in size; many hits overshoot -100%
Target sequence (P80244 whole entry, looked up): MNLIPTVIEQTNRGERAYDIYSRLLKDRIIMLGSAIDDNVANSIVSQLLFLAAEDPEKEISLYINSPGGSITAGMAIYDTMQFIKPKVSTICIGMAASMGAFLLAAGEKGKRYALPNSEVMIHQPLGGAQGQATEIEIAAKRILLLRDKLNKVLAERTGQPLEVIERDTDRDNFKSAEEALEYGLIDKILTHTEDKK
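ClpP 10 microg/mL final, pH 8 Tris/KCl buffer with BSA, glycerol, Tween-20; compound pinned in; FRET-FV substrate; RT 20 min; Ex320/Em430; ΔFRET vs ADEP 5.8 microM, DMSO, no enzyme.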
* marks the source's active call; other numbers are inactive results; ? = inconclusive; . = no result given; & = joins results of further samples; [ ] = dose if it differs, or a comment.

SMILES	D2 ag	Menin MLL FP FL	PINK1 modulator	gsp antagonist	Sfp inh	gsp agonist	ClpP mod
COc1ccccc1NC(=O)Cn1c(=O)n(C)c(=O)c2sc3c(c21)COC(C)(C)C3	3.8	.	-1.5%	2%	9%	5%	-3.5%
O=C(c1ccc2ccccc2c1O)N1CCCCC1	12	.	1.7%	.	.	-46%[inhibitor]	-22%
Cc1ccc(-c2ccc(C(=O)Nc3cccc(F)c3)o2)c2ccccc12	1.6	1.4	2.4%	-12%	71µM*	-4%	4.3%
CCN(C[C@H]1N[C@@](C)(C(=O)OC)[C@H]2C(=O)N(C)C(=O)[C@@H]12)S(=O)(=O)c1ccc(C(F)(F)F)cc1	-0.5	.	2.5%	9%	.	.	0.5%
COc1ccccc1CN1C(=O)CNC1=S	-4.0	-3.3	1.5%	3%	7%	-2%	0.7%
Cc1c(OCC(=O)NCc2cccnc2)ccc2c3c(c(=O)oc12)CCC3	0.3	.	4.0%	-17%	8%	-18%	?
CCCCCC(=O)N1CCN(c2ccc(C(C)=O)cc2F)CC1	2.4	1.6	1.5%	-15%	14%	-71%[inhibitor]	-3.2%
Cc1ccccc1NC1=CC(=O)CC(C)(C)C1	-1.1	3.6	-2.1%[38.3 µM]	1%	-2%	30%	-1.4%
CCOc1ccc2nc(NC(=O)CSc3nc4ccccc4c(=O)n3Cc3ccco3)sc2c1	-0.1	1.6	5.5%	3%	-7%	18%	-9.1%
COCCNc1oc(-c2ccc(Cl)cc2)nc1C#N	-3.8	1.0	2.2%	2%	2%	10%[15.4 µM]	-4.9%
O=S(=O)(Nc1ccc(N=Nc2ccc(O)c3ccccc23)cc1)c1ccccc1	-4.3	-0.8	?	?	?	13%	9.3%
CCOC(=O)c1ccc(S(=O)(=O)N2CCN(C(=O)CSc3nc4ccccc4o3)CC2)cc1	-0.6	-1.2	-0.7%	-34%	7%	-19%	1.2%
O=C1NC(=O)c2cc3ccccc3cc21	-0.6	.	-1.0%	1%	.	-50%[inhibitor]	4.6%
FC(F)(F)c1cccc(Nc2ncnc3ccccc23)c1	3.6	-1.5	-0.7%[38.3 µM]	-27%	6%	?	-2.0%
CCC1(CC)NC(=O)N(CC(=O)OCn2nnc3ccccc3c2=O)C1=O	-3.0	-0.5	-1.0%	-3%	6%	14%	-3.3%
CCOC(=O)C1=C(C(=O)OCC)N(CC2CCCCC2)CCC1=O	-1.8	.	2.6%	-6%	.	.	1.0%
CC(=O)NC(CC(=O)NCCc1ccccc1)c1ccccc1 (stereo not drawn)	2.4	.	-0.2%	7%	10%	15%	-1.3%
CCCCCCNCCn1cnc2c(N)ncnc21	0.1	2.4	4.5%[38.3 µM]	0%	16%	29%	0.0%
CN(c1ccccc1)c1nc(N)c([N+](=O)[O-])c(NCCO)n1	-3.4	1.4	0.1%	0%	0%	?	-0.1%
COc1cccc(Cn2c(=O)c(-c3cccc(C#N)c3)nc3cnc(Nc4ccccc4)nc32)c1	.	?	12%	.	15%	.	.
COc1cc(/C=C/C(=O)O)ccc1S(=O)(=O)N1CCCc2ccccc21	5.9	4.1	1.2%	-4%	22%	1%	.
CNc1nc(NCc2ccccc2)c2ccccc2n1	2.7	-6.6	9.1%	13%	1%	0%	.
COc1ccc(C(=O)N/C(=C\c2cn(C)c3ccccc23)C(=O)N2CCOCC2)cc1	-7.9	.	-1.5%	-34%	-3%	-45%[inhibitor]	1.0%
Cc1cccc(CSC2=NCCN2S(=O)(=O)c2ccc(F)cc2)c1	-6.2	1.0	-1.4%	-18%	1%	-13%	-3.0%
NS(=O)(=O)c1ccc(CNc2nc(-c3cccnc3)nc3ccccc23)cc1	6.8	1.6	3.6%	7%	14%	27%	.
CCOC(=O)c1ccc2[nH]c3c(c2c1)CCCC3	6.2	-2.1	2.1%	8%	1%	11%	-5.2%
COc1cc(/C=N/c2oc(-c3ccccc3)cc2C#N)ccc1O	-0.9	15	-1.8%	-6%	-9%	14%	3.5µM*
CCN(CC)c1nc(OCCNC(=O)Nc2ccccc2)nc(N(CC)CC)n1	-0.5	2.4	15%	-13%	-8%	?	-2.4%
Cc1cccc(C)c1NC(=O)Nc1nnc([C@H]2C[C@H](O)[C@@H](CO)O2)s1	-3.1	.	1.8%	.	.	.	0.5%
CCOC(=O)c1c(NC(=O)COC(=O)Cc2n[nH]c(=O)c3ccccc23)sc(C(=O)N(C)C)c1C	0.6	.	-4.2%	25%	.	-19%	1.8%
CCCCC1=CC2=CC(=O)C(C)(OC(=O)CC)C(=O)C2=CO1 (stereo not drawn)	3.0	-0.8	0.2%	6%	10%	30%	0.6%
COc1ccc(NC(=O)NNC(=O)CCC(=O)Nc2ccccc2Cl)cc1	6.7	-4.1	-0.8%	6%	11%	?	-0.9%
C[C@]12c3[nH]c4cc(-c5ccco5)ccc4c3CCN1C(=O)[C@@H](CC(=O)NCCC1=CCCCC1)C[C@@H]2C(=O)N1CCCCC1	0.9	.	5.7%	?	.	.	4.4%
CC(=O)Nc1ccc(-c2csc(Nc3ccc(S(N)(=O)=O)cc3)n2)cc1	0.4	-1.0	4.5%	12%	17%	3%[15.4 µM]	.
O=C(O)CCn1c(CO)nc2ccccc21	-1.9	4.4	0.6%	-13%	7%	0%	.
COc1ccc(OC)c(NC(=O)c2sc3ncnc(N4CCN(c5ccccn5)CC4)c3c2C)c1	-3.7	-4.1	-1.7%	-3%	1%	-16%[15.4 µM]	.
COc1ccc(C(=O)NC(=S)N2CCN(C)CC2)cc1Br	0.8	-0.8	2.7%	6%	-14%	?	-1.3%
COCCn1c(=O)c(-c2ccc(Cl)cc2)nc2cncnc21	.	0.7	-0.2%	.	3%	.	.
O=C(NC(=S)Nc1ccc(S(=O)(=O)N2CCCCC2)cc1)c1ccc(Cl)cc1	-0.7	-3.7	25%	-27%	11%	-27%	-1.3%
O=C1C=C(CCc2ccccc2)CCC1	-8.5	.	1.7%	.	.	3%	3.6%
COCC(C)n1c(C)cc(C(=O)CN2C(=O)NC(Cc3c[nH]c4ccccc34)C2=O)c1C (stereo not drawn)	-2.5	1.0	-1.0%	-8%	5%	14%	0.6%
COc1ccc(OCCN2C(=O)c3cccc(N)c3C2=O)cc1	-1.8	-4.2	0.1%	1%	8%	-12%[15.4 µM]	.
COc1ccc(/C=C(/NC(=O)c2ccc(C)cc2)C(=O)N2CCCC2)cc1OC	0.4	-0.6	3.2%	0%	1%	-27%	.
NC(=O)c1nc(C(=O)N2CCCCC2)c2ccccc2n1	-3.6	.	-1.1%	10%	.	-16%	1.8%
COc1cccc(/C=C2/Oc3ccccc3N(CC(=O)NCC3CCCO3)C2=O)c1 (stereo not drawn)	2.4	3.2	13%	-23%	3%	14%	3.7%
CC(C)c1ccc(NC(=O)CCCC(=O)NCCc2ccccc2)cc1	0.7	0.2	-2.3%	0%	5%	-9%	-2.5%
CC(C)(C)NC(=O)c1ccc2nccnc2c1	-1.4	0.1	2.7%	6%	5%	-56%[inhibitor]	-6.3%
O=C(c1cccc(Oc2c(Cl)cccc2[N+](=O)[O-])c1)N1CCCCC1	0.9	-1.6	-1.2%	0%	16%	3%	.
OC[C@@H]1CN(C2CCCC2)C[C@H](n2cnc3c(NC4CC4)ncnc32)O1	-3.3	.	1.8%	.	.	.	0.2%
Cc1ccc(C)c(NC(=O)COC(=O)CCCN=C2NS(=O)(=O)c3ccccc32)c1	-1.0	1.1	4.0%	-14%	4%	-37%[inhibitor]	-0.2%

The list goes on:
SMILES	D2 ag	Menin MLL FP FL	PINK1 modulator	gsp antagonist	Sfp inh	gsp agonist	ClpP mod
CCN(CC)CCCn1c2c(c(SCC(=O)Nc3cccc4ccccc34)nc1=O)CCC2	-5.0	.	-1.5%	7%	.	7%	-23%
Cc1onc(-c2ccccc2)c1-c1ccc(S(N)(=O)=O)cc1	3.6	-2.0&2.0	0.4%	-14%	9%&29%	.	1.2%
O=S(=O)(Cc1nnnn1-c1ccccc1)c1ccccc1	0.6	.	-0.3%	3%	13%	?	-2.0%
CN(Cc1ccccc1)C(=O)c1ccc(NC(=O)Cc2cccc(NC(=O)C3CCCN(C(=O)C4CCCC4)C3)c2)cc1 (stereo not drawn)	-2.5	.	1.0%	-2%	.	-16%	-3.9%
COc1ccccc1-c1noc(-c2cccs2)n1	3.4	7.7	30%[38.3 µM]	-3%	17%	6%	0.0%
CN(Cc1cn(C)nc1-c1cccc(Cl)c1)Cc1nccn1C	-3.8	2.9	-0.3%	-1%	-5%	12%	0.6%
Cc1cccc(C2c3[nH]c4ccccc4c3CCN2C(=O)c2nn(C)c(=O)c3ccccc23)n1 (stereo not drawn)	-1.7	-0.2	-1.9%	.	-1%	10%[15.4 µM]	.
NC(=S)N/N=C\c1ccc(-c2cccc(Cl)c2Cl)o1	-4.5	4.3	-1.2%	-6%	-17%	-5%	-4.9%
Cn1c(=O)c2cc(NC(=O)Cc3ccccc3F)ccc2n1-c1ccc(C(C)(C)C)cc1	-1.8	.	28%	.	.	.	4.1%
COc1ccc(CC(=O)OCC(=O)c2ccc(OC)cc2)cc1	-9.5	2.8	-1.4%	-7%	7%	-2%[15.4 µM]	0.2%
COc1ccc(NC(=O)N(C)C[C@H]2Oc3ccc(NC(=O)Cn4cnnn4)cc3C(=O)N([C@H](C)CO)C[C@@H]2C)cc1	-2.8	.	1.9%	7%	.	.	-2.4%
CC(=O)NCCNc1ccnc(-c2ccccc2C(F)(F)F)n1	.	-3.1	0.6%	.	-4%	.	.
